Screens from PubChem BioAssay.
TRPML1 agonist: qHTS for Agonists of the Human Mucolipin Transient Receptor Potential 1 (TRPML1) | Mucolipin-1 (Homo sapiens), Q9GZU1 | TRPML1-expressing cells, Ca2+ dye fluorescence, FDSS; host cell line not named in the record; reference of the full effect not given here | activation, % (concentration not given with the values) | 0.12% of 410,000 active; in the data active = activation above about 50%; inconclusive = about 30% to 50%; inactive = below about 30%; also: 0% is about no effect; the text of the record puts the active cut at 80%
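In this qHTS format, compounds were pin-transferred onto Ca8-dye-loaded TRPML1-DL cells induced with Tet overnight, and intracellular Ca2+ fluorescence was recorded kinetically for 110 s after a 10 s baseline. A subsequent 4uM final 54-4 (EC80) addition followed by a second 110 s read served as the antagonist phase.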
TRPML1 blocker: qHTS for Inhibitors of the Human Mucolipin Transient Receptor Potential 1 (TRPML1) | Mucolipin-1 (Homo sapiens), Q9GZU1 | TRPML1-inducible cells, Ca2+ dye fluorescence, FDSS; stronger effect = lower value; inhibition of EC80 agonist-evoked calcium signal | activity change, negative = inhibition, % (concentration not given with the values) | 0.02% of 390,000 active | AID 624415, 2012; in the data active means activity change below about -50%; inconclusive means about -30% to -50%; inactive means above about -30%;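 also: stimulus is agonist 54-4 at its EC80 concentration; % is scaled to controls: 0 for no effect and ±100 for the full control effect; compound concentration not given in the record; the text of the record puts the active cut at -80%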
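Tet-induced TRPML1-DL cells loaded with Ca8 no-wash calcium dye were read kinetically on FDSS. Compound addition was followed by EC80 agonist 54-4 (4 uM final); inhibition was read over 110 s.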
Menin MLL FP FL: qHTS Assay for Inhibitors Targeting the Menin-MLL Interaction in MLL Related Leukemias: Competition With Fluorescein Labeled MLL-derived Peptide | Fluorescence polarization, fluorescein-MLL peptide displacement from menin | FP activity change, % at 61.4 µM | 290,000 tested, under 10 active | AID 1766, 2009; inconclusive = falling polarisation curve, or a change in total fluorescence; inactive = total fluorescence flat and polarisation flat or rising; no compound was filed as active; the % refers to the polarisation; negative = inhibition;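 also: % of control where 0% means no effect; inhibitors lower the polarisation; unlabelled MLL peptide was the positive control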
TRPV1 PAM: HTS Assay for Compounds that Act as Potentiators of the Vanilloid Receptor 1 | AID 540277, 2011 | potentiation, % at 8.33 µM | TRPV1-expressing cells, Fluo-8 calcium influx, capsaicin EC20 potentiation; host cell line not named in the record; control for the full effect not named in the record | 0.02% of 320,000 active; active means potentiation above 80%; inconclusive means 30% to 80%; inactive means below 30%; also: 0% is about no effect
Target sequence (Q8NER1 whole entry, looked up): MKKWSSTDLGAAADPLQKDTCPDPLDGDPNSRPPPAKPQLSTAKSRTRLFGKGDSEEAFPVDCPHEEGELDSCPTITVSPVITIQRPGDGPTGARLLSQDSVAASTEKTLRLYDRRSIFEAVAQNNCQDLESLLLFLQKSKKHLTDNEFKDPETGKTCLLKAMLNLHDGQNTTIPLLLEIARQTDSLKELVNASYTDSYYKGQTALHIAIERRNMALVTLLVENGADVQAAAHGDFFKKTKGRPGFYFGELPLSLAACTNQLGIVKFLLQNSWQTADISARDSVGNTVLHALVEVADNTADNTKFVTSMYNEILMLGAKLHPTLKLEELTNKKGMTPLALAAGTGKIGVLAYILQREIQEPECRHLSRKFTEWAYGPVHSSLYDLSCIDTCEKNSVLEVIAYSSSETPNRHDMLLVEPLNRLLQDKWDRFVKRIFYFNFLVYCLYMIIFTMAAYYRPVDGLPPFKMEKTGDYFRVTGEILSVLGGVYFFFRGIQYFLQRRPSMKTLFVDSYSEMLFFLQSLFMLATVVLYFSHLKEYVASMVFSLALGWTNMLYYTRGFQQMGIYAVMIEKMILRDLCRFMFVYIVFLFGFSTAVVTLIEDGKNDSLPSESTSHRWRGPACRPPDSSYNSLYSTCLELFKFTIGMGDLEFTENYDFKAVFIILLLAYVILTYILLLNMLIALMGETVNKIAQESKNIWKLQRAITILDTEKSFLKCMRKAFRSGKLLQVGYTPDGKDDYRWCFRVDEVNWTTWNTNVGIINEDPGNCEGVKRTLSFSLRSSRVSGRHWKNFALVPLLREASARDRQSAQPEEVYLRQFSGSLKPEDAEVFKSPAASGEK
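Cells expressing TRPV1 were dye-loaded with Fluo-8 and read kinetically: 10 s baseline, 3 min after compound (agonist portion), then 2 min after EC20 capsaicin (allosteric enhancer portion). Calcium-bound dye fluorescence at 480/520 nm.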
PINK1 modulator: A Quantitative High throughput Screen to Identify Chemical Modulators of PINK1 Expression; 0.2% of 410,000 active; AID 624263, 2012; Potency, µM (highest dose often 76.6 µM), without a hit: at the highest dose activation (PINK1 increase), hits mostly activators; PINK1 immunofluorescence, high-content cytometry, 24 h; active = well fitted activation curve with a large enough effect; inconclusive = small, poorly fitted or top-dose-only effect; inactive = flat fitted curve, though single readings scatter; cell line not stated here;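 also: potency is read from the fitted curve at half-maximal effect; % of control where 0% means no effect; nearly all actives have a fitted effect of over 65% in size; a mitochondrial uncoupler was the plate control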
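Fluorescence from anti-PINK1 antibody, together with nuclear and cell stains, was scanned on a laser-scanning cytometer. Before staining, stable-line cells were incubated 24 hours with compounds at 5 concentrations; primary antibody 12 h at 10 degrees C.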
Sfp PPTase inh: qHTS Assay for Inhibitors of Bacillus subtilis Sfp phosphopantetheinyl transferase (PPTase). 4'-phosphopantetheinyl transferase ffp (Bacillus subtilis), Q9F4F7. 3.5% of 310,000 active. Potency, µM, inactives show max response, negative = inhibition, hits mostly inhibitors. Biochemical Sfp PPTase activity, qHTS; active = well fitted inhibition curve with a large enough effect; inconclusive = small, poorly fitted or top-dose-only effect, or another doubt; inactive = no such curve, though single readings can be large or run the other way;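 also: the enzyme is Sfp with the accession as filed and its product quenches rhodamine fluorescence; potency is read from the fitted curve at half-maximal effect; 0% = enzyme reaction without inhibitor and -100% = no enzyme wells; top concentration of the series not given in the record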
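Fluorescence-quenching assay with 15 nM Sfp, 5 uM rhodamine-CoA and 12.5 uM BHQ-2-labelled ybbR peptide in pH 7.6 Hepes/MgCl2 buffer. Enzyme was pre-incubated with compound for 15 min at room temperature. Rate was taken from the 30-min fluorescence change (525/598 nm).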
ClpP mod: qHTS Assay for Activators of ClpP | ATP-dependent Clp protease proteolytic subunit (Bacillus subtilis (strain 168)), P80244 | purified B. subtilis ClpP, FRET peptide cleavage, 20 min | 1.9% of 340,000 active | Potency, µM (highest dose often 57.5 µM), for inactives: at the highest dose activity change, negative = active; active = well fitted falling curve with a large enough effect; inconclusive = small, poorly fitted or top-dose-only effect; inactive = no such curve, though single readings can be large or run the other way; also: potency is read from the fitted curve at half-maximal effect; the source files actives as falling curves though it sought activators and does not explain the sign; nearly all actives have a fitted effect of over 65% in size; many hits overshoot -100%
Target sequence (P80244 whole entry, looked up): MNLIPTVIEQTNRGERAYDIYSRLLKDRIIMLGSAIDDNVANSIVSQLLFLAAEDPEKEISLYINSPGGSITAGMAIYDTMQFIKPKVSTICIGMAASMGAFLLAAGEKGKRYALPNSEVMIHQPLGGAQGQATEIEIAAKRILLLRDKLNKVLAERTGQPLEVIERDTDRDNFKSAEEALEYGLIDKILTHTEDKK
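ClpP 10 microg/mL final, pH 8 Tris/KCl buffer with BSA, glycerol, Tween-20; compound pinned in; FRET-FV substrate; RT 20 min; Ex320/Em430; ΔFRET vs ADEP 5.8 microM, DMSO, no enzyme.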
* marks the source's active call; other numbers are inactive results; ? = inconclusive; . = not tested or not shown; & = joins results of further samples; [ ] = dose if it differs, or a comment. No enrichment for hits. Share with any hit: about 4.4%.

Compound	TRPML1 agonist	TRPML1 blocker	Menin MLL FP FL	TRPV1 PAM	PINK1 modulator	Sfp PPTase inh	ClpP mod
CCCC12CN3CC(C)(CN(C1)C3c1ccc(OC)cc1)C2=O (stereo not drawn)	-0.7	23	4.9	2	1.5%	11%	4.4%
Cn1c(N)c(C(=O)Nc2ccc3ccccc3c2)sc1=S	0.1	0	0.1	-11	3.9%[38.3 µM]	14µM*	-2.9%
COc1ccc(/C=C/c2ccc3ccccc3n2)cc1OC	16	.	.	.	1.9%	.	4.3%
CCC(C)(C#CCN1CCCCC1)OC(C)=O (stereo not drawn)	0.3	9	0.3	8	0.1%	8%	.
CC1(C)NC(=O)N(CC(=O)OCC(=O)c2ccc(F)cc2)C1=O	-0.7	7	.	16	-0.9%	.	-2.5%
COC(=O)Cn1c(SCCOc2ccccc2OC)nc2ccccc21	1.6	-2	.	.	4.4%	.	-0.8%
COc1ccc(-c2nn(CCC#N)cc2C(=O)Nc2cccc(C(=O)O)c2)cc1OC	0.7	-5	-1.6	4	0.7%	11%	0.6%
Cc1cccc(C)c1N1CCN(C(=O)Nc2ccc3c(c2)OCCO3)CC1	0.7	-1	3.7	-6	-0.9%	10%	-2.0%
COc1cccc(NC(=O)NNC(=O)COc2ccc3ccccc3c2)c1	3.1	15	-4.8	26	6.8%	-2%	-2.2%
COCc1ccc(C(=O)N2CCc3c([nH]c4ccccc34)C2c2ccccn2)s1 (stereo not drawn)	-0.8	18	-4.6	-9	-0.2%	0%	.
Cc1cc(=O)n(Cc2ccccc2Cl)c2c1c(C)nn2-c1ccccc1	1.3	33	.	.	0.0%	.	-16%
CC(C)C(OC(=O)CN1C(=O)c2ccccc2C1=O)C(=O)NC1CCCC1 (stereo not drawn)	-0.4	-15	-1.4	0	3.8%	15%	-0.6%
COc1cccc(C(=O)Nc2ccc(S(=O)(=O)Nc3onc(C)c3C)cc2)c1	3.3	-8	0.7	-1	-2.1%	-1%	0.2%
COC1=C(Nc2ccccc2OC)C(=O)c2ccccc2C1=O	-0.2	-5	-1.7	9	-1.3%	-18%	.
COc1ccccc1C(=O)NCCc1csc(-c2ccc(C(F)(F)F)cc2)n1	3.4	7	.	.	1.5%	.	-17%

Another view of part of the listing above:
Cc1cccc(C)c1N1CCN(C(=O)Nc2ccc3c(c2)OCCO3)CC1
  TRPML1 agonist: 0.7 | TRPML1 blocker: -1 | Menin MLL FP FL: 3.7 | TRPV1 PAM: -6 | PINK1 modulator: -0.9% | Sfp PPTase inh: 10% | ClpP mod: -2.0%

COc1cccc(NC(=O)NNC(=O)COc2ccc3ccccc3c2)c1
  TRPML1 agonist: 3.1 | TRPML1 blocker: 15 | Menin MLL FP FL: -4.8 | TRPV1 PAM: 26 | PINK1 modulator: 6.8% | Sfp PPTase inh: -2% | ClpP mod: -2.2%

COCc1ccc(C(=O)N2CCc3c([nH]c4ccccc34)C2c2ccccn2)s1 (stereo not drawn)
  TRPML1 agonist: -0.8 | TRPML1 blocker: 18 | Menin MLL FP FL: -4.6 | TRPV1 PAM: -9 | PINK1 modulator: -0.2% | Sfp PPTase inh: 0% | ClpP mod: .

Following part
Compound	TRPML1 agonist	TRPML1 blocker	Menin MLL FP FL	TRPV1 PAM	PINK1 modulator	Sfp PPTase inh	ClpP mod
Cc1ccccc1-n1c(SCc2c(C)noc2C)nnc1-c1c[nH]c2ccccc12	1.4	5	1.2	-21	16%	7%	-0.5%
O=C(c1ccc(Cl)cc1)C1CCN(C(=O)C2CC2)CC1	-0.4	-4	1.3	-33	0.1%	2%	0.9%
Cc1ccc(/C=N/N2CCN(c3ccc(Cl)cc3)CC2)o1	0.3	1	0.4	5	3.9%	-4%	0.7%
CCOC(=O)c1sc(NC(=O)CSc2nnc(C(C)C)n2C)nc1C	-0.7	-5	-0.5	1	-2.0%	18%	-2.4%
COC(=O)CCCC(=O)N(C)CC1CCCN(CCc2ccccc2C)C1 (stereo not drawn)	-1.0	3	.	.	-0.5%	.	.
COc1ccc(CC(=O)Nc2ccc(S(=O)(=O)Nc3nc(C)cc(C)n3)cc2)cc1	-0.6	6	0.2	19	5.8%[38.3 µM]	10%	-1.2%
CN(C)c1ccc(NC(=O)c2ccc([N+](=O)[O-])cc2Cl)cc1	1.2	-18	-4.6	5	-1.1%	10%	.
CC1CC(C)(C)NC(=S)N1CCC(=O)N1CCN(c2ccccc2)CC1 (stereo not drawn)	-0.1	-10	1.4	9	1.0%	-3%	0.0%
CC(C)c1ccc(NC2CCCN(C(=O)c3cccc4nccnc34)C2)cc1 (stereo not drawn)	-0.6	6	1.1	-11	0.9%	13%	-0.4%
Cc1ccc(C(OCCN(C)C)c2cccc(C(F)(F)F)c2)cc1 (stereo not drawn)	0.9	0	9.8	-7	14%	2%	0.2%
CCSc1nnc(NC(=O)NC2CCCCC2)s1	0.5	14	0.7	-5	7.9%	9%	.
COCCOC(=O)c1c(C)oc2ccc(OC(=O)c3ccco3)cc12	2.9	21	-0.6	0	1.3%	-11%	-1.8%
COc1ccc(-c2cc(C(F)(F)F)c(C#N)c(SCC(=O)Nc3cccc(C)c3)n2)cc1	0.3	3	.	.	-0.8%	.	-12%
COc1ccccc1NC(=O)CSc1nncn2c1cc1sccc12	0.6	15	.	.	1.5%	.	3.8%
O=C(CCCCN1CCCCC1)c1ccc2c(c1)Cc1ccccc1-2	5.5	-6	0.1	-1	-1.1%	-14%	-9.7%
CN1CCN(C(=O)c2cnn(-c3ccccc3)c2NC(=O)c2ccccc2)CC1	4.4	35	-1.3	1	0.9%	12%	-0.7%
N=c1n(CC(=O)c2ccc([N+](=O)[O-])cc2)c2ccccc2n1Cc1ccccc1Cl	0.9	28	5.2	8	-1.3%	-6%	-2.3%
c1coc(-c2nnc(-c3ccco3)nn2)c1	-0.3	-3	.	-1	-0.5%	-65%	.
C[C@@H]1CC=C[C@H]2[C@H]1C(=O)N(Cc1ccccc1)[C@H]2c1ccc2ccccc2c1/C=C/c1ccccc1	0.2	-1	1.4	3	9.6%	-8%	3.4%
COc1cccc(OCCNC(=O)Nc2cc(F)c(F)cc2Cl)c1	1.9	10	-3.5	-9	-0.2%	14%	.
CC(=O)c1cc2c(cc1N(C(=O)Cn1nnc3ccccc31)C(C(=O)NCCC(C)C)c1cccnc1)OCO2 (stereo not drawn)	-0.4	6	5.7	12	0.3%	2%	.
CC1=CC(C)C2C(=O)N(CCCN(C)C)C(=O)C2C1 (stereo not drawn)	1.4	5	0.3	-23	-2.6%	16%	-1.1%
CCC(=O)OCc1c(C(F)(F)F)nn(C)c1Oc1cccc(C(F)(F)F)c1	-0.3	42	1.2	-2	42%[38.3 µM]	2%	1.7%
COc1ccc(C2=NS(=O)(=O)N(C)C(C(=O)N(C)Cc3ccccc3)=C2)cc1OC	1.3&0.5	31&-7	1.0	0	3.1%&0.9%	23%	-1.2%&-0.8%
COc1ccc2c(c1)Cc1sc(NC(=O)c3ccccc3)nc1-2	0.0	-15	1.1	-7	6.8%	50µM*	-21%
COc1ccc(CNC(=O)c2cc(-c3ccc(OC)cc3)nc3n[nH]c(-c4cccc([N+](=O)[O-])c4)c23)cc1	0.0	-12	.	.	4.9%	.	-2.0%
Nc1c(C(=O)Nc2ccccc2F)sc2nc(-c3cccnc3)ccc12	0.4	1	11	-27	13%	?	0.2%
Cn1c(=O)c2c(nc3n2CC(COc2ccc(Cl)cc2)O3)n(C)c1=O (stereo not drawn)	0.1	-11	-4.1	0	0.6%	12%	1.3%
Cc1ccn2cc(CCNC(=O)C3CCCCC3)nc2c1	0.1	3	8.3	7	-0.8%	21%	3.6%
OCC1(Cc2ccccc2C(F)(F)F)CCN(Cc2ccc3c(c2)CCO3)CC1	-0.9	0	-1.2	-3	-0.7%	2%	0.8%
COc1ccc(C(=O)NNC(=O)CSc2nnc(C)n2C)cc1	0.0	8	0.1	6	-0.5%	4%	.
CCCOc1ccc(/C=N/NC(=O)CN(c2ccc(OCC)cc2)S(C)(=O)=O)cc1	2.4	3	1.6	16	2.5%	9%	.
CCN(CC)CCn1c2c(c(SCC(=O)Nc3cccc(C(F)(F)F)c3)nc1=O)CCC2	-0.2	-11	.	.	-1.2%	.	-3.5%
CCSc1nnc(NC(=O)CCc2ccc(OC)cc2)s1	0.4	6	8.8	6	-0.9%	-1%	-2.4%
NC(=O)N1CCC2(CC1)NC(=O)N(c1ccccc1)N2	0.3	-2	2.3	2	0.1%	-7%	.
CCN(CC)C(=O)C(=O)c1cccn1-c1cccc(-n2cccc2C(=O)C(=O)N(CC)CC)c1C#N	0.7	-10	-0.7	0	-1.5%	-26%	-5.9%
C[C@H]1CN([C@@H](C)CO)C(=O)CCCn2nncc2CO[C@H]1CN(C)S(=O)(=O)c1ccc(Oc2ccccc2)cc1	6.6	-1	.	.	4.5%	.	-0.7%
CCn1c(=O)cc(OCC(=O)NCCCN2CCCC2=O)c2ccccc21	0.2	15	-0.1	13	1.1%	4%	-9.1%
Cc1ccnc(Nc2nc3ccccc3o2)n1	-0.3	4	4.1	-6	-0.6%	71µM*	0.8%
O=C(Nc1ccc(F)c(Cl)c1)c1cc(C2CCCCN2C(=O)CCCc2ccccc2)on1 (stereo not drawn)	1.1	.	.	.	-0.1%	.	-5.9%
Cn1c(SCC(=O)Nc2ccc(F)cc2)nc2c(c1=O)SCC2	-0.4	-1	.	-12	1.7%	7%	0.9%
COc1ccccc1NC(=O)c1c(NCc2ccc(C)o2)sc2c1CCC(C)C2 (stereo not drawn)	0.8	8	.	.	5.5%	.	-1.7%
